Yeast UUG start – modulators of yeast start codon fidelity, primary screen, whole organism, S. cerevisiae, single point, plate reader. 350,000 tested, 0.13% active. activity score, % at 18.7 µM. S. cerevisiae UUG-firefly luciferase reporter, luminescence/redox ratio;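 active = replicate mean at a twofold rise or more, about +100% in these data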;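 also: firefly luciferase made from a UUG start codon reports start codon fidelity; reporter light over untreated wells divided by growth signal over untreated wells; some hits fall short of that in this replicate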
PABP polyA inh – PABP poly(A) RNA binding inhibitors, primary screen, biochemical, fluorescence polarization, uHTS; 290,000 tested, 1% active; Polyadenylate-binding protein 1 (Homo sapiens), P11940; inhibition, % at 35 µM;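 active = 50% or more with normal probe brightness, or confirmed in later tests; inconclusive = above 50% with abnormal brightness, or retests that disagree; inactive = below 50% or failed in later tests; about a fifth of its hits are not listed in these tables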;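 also: calls also rest on retests at 20 µM and on dose response follow-up; controls were probe without protein and protein plus probe with vehicle; some compounds called inactive have numbers as strong as hits; many hits fall short of the cut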
Target sequence (P11940 whole entry, looked up): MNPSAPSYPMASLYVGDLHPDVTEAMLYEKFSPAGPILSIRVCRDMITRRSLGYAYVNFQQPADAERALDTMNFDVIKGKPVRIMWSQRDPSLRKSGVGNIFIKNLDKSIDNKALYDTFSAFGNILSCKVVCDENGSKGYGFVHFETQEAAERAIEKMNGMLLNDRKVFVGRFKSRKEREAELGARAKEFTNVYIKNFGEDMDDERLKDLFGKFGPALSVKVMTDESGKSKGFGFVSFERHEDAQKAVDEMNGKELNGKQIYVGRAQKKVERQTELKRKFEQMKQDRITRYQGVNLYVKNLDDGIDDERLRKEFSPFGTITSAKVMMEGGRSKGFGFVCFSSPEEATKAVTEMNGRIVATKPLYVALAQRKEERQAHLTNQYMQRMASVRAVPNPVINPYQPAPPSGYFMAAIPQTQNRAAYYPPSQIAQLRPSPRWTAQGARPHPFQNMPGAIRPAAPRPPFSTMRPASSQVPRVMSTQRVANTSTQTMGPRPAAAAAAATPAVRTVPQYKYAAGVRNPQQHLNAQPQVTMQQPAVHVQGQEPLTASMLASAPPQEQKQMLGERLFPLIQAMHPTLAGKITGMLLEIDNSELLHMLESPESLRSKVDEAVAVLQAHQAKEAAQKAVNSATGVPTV
Env fusion inh – inhibitors of HIV-1 Env-driven cell-cell fusion, primary screen, HeLa-JRFL effector, CEM21 target cells, luciferase; inhibition, % at 12.3 µM; 360,000 tested, 1.1% active;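 active = mean replicate inhibition score of at least 50 and every replicate individually at or above 50; inconclusive = only one of the two criteria met; inactive = mean below 50 and not all replicates reaching 50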;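 also: 0% = plate neutral controls and 100% = maraviroc near 300 nM; one replicate is shown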
CSC inhib – cancer stem cell viability inhibitors, primary screen, luminescence | cancer stem cell-like cells viability | inhibition, % at 7.5 µM | 300,000 tested, 1.1% active | AID 2717, 2010;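 active = mean at 75% or more and at least half the replicates too; inconclusive = mean and replicates disagree; tested in HMLE shEcad cells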;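 also: 0% = median of negative and 100% = median of positive control wells; the first replicate is given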
MT1-MMP act inh – blockers of MT1-MMP proenzyme processing, primary screen, HT1080 RFP-PRO-GFP cells, GFP/RFP fluorescence. GFP/RFP ratio fluorescence, overnight; percent of plate control window, DMSO zero. GFP/RFP ratio change, % at 20 µM. 360,000 tested, 0.061% active. AID 651647, 2012;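 active = GFP/RFP ratio change of at least 30% with cell ATP level not reduced by more than half and red fluorescence within 50% of control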; also: strong numbers were not always called active
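Test system: HT1080 RFP-PRO-GFP cells; Benchmarks: DMSO and RFP-L50D-GFP cell wells; Timing: cells overnight before dosing, compound overnight, 37 °C, 5% CO2; Compound: one 20 µM compound dose with 1% DMSO; Read-out: GFP/RFP fluorescence ratio.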
eIF4H FP inh – human eIF4H binding inhibitors, primary screen, translation initiation inhibitor project, biochemical, uHTS, fluorescence polarization; inhibition, % at 35 µM; 290,000 tested, 0.94% active; eIF4H fluorescence polarization binding assay;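 active = 50% or more with normal probe brightness, or confirmed in later tests; inconclusive = above 50% with abnormal brightness, or retests that disagree; inactive = below 50% or failed in later tests; about a fifth of its hits are not listed in these tables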;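 also: calls also rest on retests at 20 µM and on dose response follow-up; 0% = protein and probe with vehicle and 100% = probe without protein; strong numbers were not always called active; many hits fall short of the cut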
Rce1 inh – yeast Rce1p protease inhibitors, primary screen, biochemical, fluorescence, cell-free homogeneous; CAAX prenyl protease 2 (Saccharomyces cerevisiae (strain ATCC 204508 / S288c)), Q03530; yeast membranes, quenched prenylated peptide cleavage fluorescence; calls only; 290,000 tested, 0.27% active; AID 2563, 2010;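 active = fall in fluorescence gain of 50% or more versus controls, with final raw signal at or below 3038400; inconclusive = same 50% fall but final raw signal above 3038400; inactive = fall in fluorescence gain under 50%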;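 also: plate controls were neutral control wells for no effect and wells lacking membranes for full effect; tested at 10 µM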
eIF4H FP inh retest – further read-out of eIF4H FP inh, marked with its call; inhibition, %; compound at 20 µM; confirmation average;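 mean of two retest wells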
PABP polyA inh retest – recorded beside PABP polyA inh, whose call it bears; inhibition, %; compound at 20 µM; confirmation repeats;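 mean of two retest wells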
MT1-MMP act inh RFP – also measured in MT1-MMP act inh; calls as there; RFP signal change, %; measured here: RFP expression control read;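 0 = vehicle wells; hits needed this value within 50% of zero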
* = called active by the depositor; i = inactive; ? = inconclusive; / = not tested or not shown.

SMILES	Yeast UUG start	PABP polyA inh	Env fusion inh	CSC inhib	MT1-MMP act inh	MT1-MMP act inh RFP	eIF4H FP inh	Rce1 inh	others
Fc1ccc(-c2nn(-c3ccccc3)cc2CNCc2ccccc2)cc1	-11	-2	20	-11	-4	-2	-4	i
Cc1cccc(NC(=O)c2nnn(-c3cccc(C(F)(F)F)c3)c2N)c1	/	2	4	8	2	-1	8	i
CNS(=O)(=O)c1cccc2nsnc12	/	23	-7	-9	-1	4	-1	i
Cc1c(NC(=O)c2ccc3c(c2)OCO3)cccc1-c1nc2ccccc2o1	-21	4	19	1	-2	-2	1	i
C=CCSc1nc2c(c(=O)[nH]c(=O)n2C)n1CC	2	11	/	-4	0	3	0	i
COc1cc(-n2c(C)nc3cc(C(=O)N4CCOCC4)ccc32)cc(OC)c1OC	-20	0	/	-15	1	6	5	i
Cn1cc([N+](=O)[O-])c(C(=O)Nc2cc(Oc3ccccc3)cc([N+](=O)[O-])c2)n1	/	-8	-119	96*	-27	-38	-2	i
Cc1ccccc1-n1c(-c2ccoc2C)n[nH]c1=S	/	-2	28	-8	2	4	-5	i
CCCNC(=O)CS(=O)Cc1nc(-c2cccc(OC)c2)oc1C (configuration not stated)	-15	5	-27	-14	1	2	1	i
COc1ccc(CCN(C)c2ccc(C(N)=O)cc2[N+](=O)[O-])cc1OC	9	6	11	-14	-8	-12	-10	i
CCOc1ccc(NC(=O)C2CCCN2C(=O)NC2CCCCC2)cc1 (configuration not stated)	-22	-6	-16	-1	-2	2	-8	i
O=C(N/N=C/c1ccc(Cl)cc1Cl)c1cccc(F)c1	-11	3	-364	13	4	-4	-7	i
Cc1ccc(N(C)S(=O)(=O)c2cccc(C(=O)N(C)Cc3cnn(-c4ccccc4)c3)c2)cc1	2	/	63*	/	0	-12	/	/
CCOC(=O)c1ccccc1NC(=O)COC(=O)CCC(=O)N1CCOCC1	20	-1	0	3	9	4	-2	i
CCN1CCN(C(CNS(=O)(=O)c2ccc(Br)cc2)c2cccnc2)CC1 (configuration not stated)	-5	-7	18	-2	-1	3	-13	i
Cc1cc(SCC(=O)N/N=C/c2ccccc2C(=O)O)c(C)cc1Br	-10	-8	-4	-7	-4	-4	-14	i
COc1ccc(CN2CC(=O)N(c3ccc(Cl)cc3)C2=S)cc1OC	0	6	-10	0	-1	-10	-7	i
O=C(NNC(=O)c1ccc([N+](=O)[O-])cc1)c1ccc(F)cc1	/	/	-3	6	-5	-5	/	i
COC(=O)c1c(-c2ccc(C)cc2)csc1N	-17	-7	16	4	3	3	-3	i
CSc1ccccc1-c1nnc(-c2ccc(Cl)c(Cl)c2)o1	7	-4	/	-5	1	1	-8	i
CC12CCC(=O)N1C(C(=O)NCCc1ccc(S(N)(=O)=O)cc1)CS2 (configuration not stated)	-21	1	-14	-23	-1	2	-12	i
COc1ccc(NC(=S)NC(NC(C)=O)C(Cl)(Cl)Cl)c([N+](=O)[O-])c1 (configuration not stated)	/	12	12	-5	7	6	10	i
Cc1nn(Cc2noc(C(=O)NCc3ccccn3)n2)c(C)c1Br	-21	-6	0	-8	-1	0	-10	i
COc1ccc(C(OC(=O)c2ccco2)C(=O)NC2CCCC2)cc1OC (configuration not stated)	-15	-2	2	-9	-3	-1	-5	/
CC(C)CC(NC(=O)c1ccc(C#CC(C)(C)O)s1)C(=O)O (configuration not stated)	/	5	?	-15	1	1	-12	i
CC(=O)C(Cc1ccccc1)NC(=O)COC(=O)c1ccc(-n2cnnn2)cc1 (configuration not stated)	-16	/	14	-3	1	-2	/	/
COc1ccc(N2C(=NC(=O)C3CCCCC3)SC3CS(=O)(=O)CC32)cc1Cl (configuration not stated)	-6	8	5	-3	2	-1	11	i
O=C(COC(=O)c1ccco1)NCCNC(=O)COC(=O)c1ccco1	-16	-12	8	/	/	/	-8	i
CS(=O)(=O)c1ccc(C(=O)OCC(=O)NC23CC4CC(CC(C4)C2)C3)cc1[N+](=O)[O-]	/	1	-22	155*	-6	-6	4	i
COC(=O)c1cc(NC(=O)c2cc3ccccc3o2)cc(C(=O)OC)c1	-16	7	-14	-20	-1	-3	5	i
Cc1ccc(C(C)n2cc(C(=O)NCCN3CCN(C)CC3)nn2)cc1 (configuration not stated)	-2	-6	?	56	-1	-5	-4	i
COc1cccc(C(C)(O)c2nc(-c3cccc4cccnc34)cs2)c1 (configuration not stated)	-4	/	10	/	2	-3	/	/
CCOc1ccc(C2C(=O)N(C3CCCCC3)CC(=O)N2CC2CCCO2)cc1OC (configuration not stated)	11	-12	/	/	-5	-4	-9	i
Cc1cc2oc3c(c(=O)c2cc1C)C(c1ccc(C(C)C)cc1)N(CCCN1CCOCC1)C3=O (configuration not stated)	-7	9	-16	-21	0	1	6	i
C[C@@H]1CC[C@]2(C(=O)O)CC[C@]3(C)C(=CCC4[C@]56CC[C@@](O)(OC5)C(C)(C)C6CC[C@]43C)C2[C@H]1C (some centres not stated)	-3	/	/	96*	6	-23	/	/
COc1ccccc1Oc1ccc(N2CC(C(=O)OCC(=O)c3ccc(F)cc3)CC2=O)cc1 (configuration not stated)	-9	16	-6	/	3	8	6	i
CCC1=NN(C(=O)c2ccccc2Br)C(O)(c2ccc(Br)cc2)C1 (configuration not stated)	5	-11	18	-9	-7	-2	0	i
CNC(=O)c1c(NC(=O)c2ccc(S(=O)(=O)N3CC(C)OC(C)C3)cc2)sc2c1CCN(C(C)C)C2 (configuration not stated)	5	0	8	-1	-36	1	-9	i
O=C(CSc1ccccc1)Nc1cccc(NC(=O)c2ccco2)c1	-5	-6	/	-22	10	-1	3	i
CCN(CC)CCNC(=O)c1ccc(NC(=O)c2ccc(Cl)c(S(=O)(=O)N3CCCCCC3)c2)cc1	-12	-10	10	9	7	-8	3	i
Cc1c(NC(=O)/C(=C/c2cccs2)NC(=O)c2ccccc2)c(=O)n(-c2ccccc2)n1C	/	-3	8	2	-2	-1	5	i
CCN(CC)C(=O)[C@H]1CC(CC(=O)NCCC2=CCCCC2)C(=O)N2CCc3c([nH]c4ccc(OC)cc34)[C@]12C (some centres not stated)	-3	/	14	/	8	-3	/	/
CCOC(=O)c1cnc(SCC(=O)c2ccc3c(c2)OCCO3)nc1N	-10	-7	-26	-7	2	3	-4	i
Cc1ccc2oc(=O)cc(CN3CCN(C/C=C/c4ccccc4)CC3)c2c1	-5	0	2	9	1	-1	-7	i
COc1ccc2c(CC(=O)OCC(=O)c3ccc(F)cc3)coc2c1	11	-2	/	8	-6	-2	-9	/
COc1cccc(C(=O)NNC(=O)c2ccc(NS(=O)(=O)c3cccs3)cc2)c1OC	-11	/	-239	15	5	-2	/	i
Cc1ccc(S(=O)(=O)N/N=C\c2ccc3c(c2)OCO3)c(C)c1	-9	-8	0	5	-5	0	-11	i
Cc1[nH]c2ccc(-c3n[nH]c(=S)n3C)cc2c1C	-21	5	/	-10	6	-4	-10	i
Cc1cccc(NC(=O)CCC(=O)N/N=C/c2ccco2)c1C	-12	11	5	-5	1	3	18	i
NC(=O)CN1CCOCCN(CC(N)=O)CCOCC1	/	3	/	-6	/	/	7	i
COc1cc(/C=N\NC(=O)c2c(C)nc3cc(C)ccn23)ccc1O	/	6	6	-26	10	12	1	i
NCC(c1ccccc1)(c1ccccc1)c1ccccc1	/	6	3	/	-5	-7	-6	i
O=C(O)c1cccc(S(=O)(=O)Nc2ccccc2Cc2ccccc2)c1	-15	6	19	-7	-2	2	10	i
COc1ccc(/C=N/OCC(=O)N2CC3(C)CC2CC(C)(C)C3)cc1OC (configuration not stated)	-7	-11	21	-5	3	-2	3	i
CC1CCN(S(=O)(=O)c2ccc3c(c2)c(=O)c(C(=O)NCc2ccccc2Cl)cn3C)CC1	/	70	/	-8	/	/	-5	i	eIF4H FP inh retest=3;PABP polyA inh retest=3
COc1ccc(NC(=S)N2CCC(C(=O)c3ccc(C)cc3)CC2)c(OC)c1	-22	3	8	-9	7	6	-4	i
CC(=O)c1cnc(Nc2cccc(Cl)c2Cl)s1	/	9	-46	1	-4	-3	-10	i
NS(=O)(=O)c1ccc(NC(=O)CSc2ccccn2)cc1	-8	-3	-76	-5	-2	2	-6	i

Entries shown so far with a Cl atom:
SMILES	Yeast UUG start	PABP polyA inh	Env fusion inh	CSC inhib	MT1-MMP act inh	MT1-MMP act inh RFP	eIF4H FP inh	Rce1 inh	others
O=C(N/N=C/c1ccc(Cl)cc1Cl)c1cccc(F)c1	-11	3	-364	13	4	-4	-7	i
COc1ccc(CN2CC(=O)N(c3ccc(Cl)cc3)C2=S)cc1OC	0	6	-10	0	-1	-10	-7	i
CSc1ccccc1-c1nnc(-c2ccc(Cl)c(Cl)c2)o1	7	-4	/	-5	1	1	-8	i
COc1ccc(NC(=S)NC(NC(C)=O)C(Cl)(Cl)Cl)c([N+](=O)[O-])c1 (configuration not stated)	/	12	12	-5	7	6	10	i
COc1ccc(N2C(=NC(=O)C3CCCCC3)SC3CS(=O)(=O)CC32)cc1Cl (configuration not stated)	-6	8	5	-3	2	-1	11	i
CCN(CC)CCNC(=O)c1ccc(NC(=O)c2ccc(Cl)c(S(=O)(=O)N3CCCCCC3)c2)cc1	-12	-10	10	9	7	-8	3	i
CC1CCN(S(=O)(=O)c2ccc3c(c2)c(=O)c(C(=O)NCc2ccccc2Cl)cn3C)CC1	/	70	/	-8	/	/	-5	i	eIF4H FP inh retest=3;PABP polyA inh retest=3
CC(=O)c1cnc(Nc2cccc(Cl)c2Cl)s1	/	9	-46	1	-4	-3	-10	i

High-throughput results from PubChem BioAssay.
